CtBP-E1A blk: CtBP/E1A binding inhibition. AlphaScreen GST-E1A/His-CtBP binding, 1536-well; stronger effect = lower value; control for the full effect not named in the record. activity change, % (no concentration beside the values). actives 0.49% (n = 340,000). AID 651724; in the data active means activity change below about -65%; inconclusive means about -30% to -65%; inactive means above about -30%; further: on the % scale 0 is the no-effect control and ±100 the full control effect; compound concentration not given in the record
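GST-E1A and His-tagged CtBP (125 nM each as 5X stock) were preincubated with pin-transferred compound for 2 h at 37 °C in the dark, then glutathione donor and nickel acceptor beads were added for 1 h before AlphaScreen reading.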
gsp antagonist: antagonizes gsp, the McCune-Albright syndrome mutation; gsp-mutant cells, cAMP HTRF, 30 min; control for the full effect not named in the record; Potency, µM (titrated, usually from 76.9 µM), for the others: top-dose activity change, negative = inhibition, hits mostly inhibitors; actives 0.4% (n = 340,000); active = falling curve of any shape with a large fitted effect; inconclusive = falling curve, mostly with a smaller effect; inactive = flat or rising curve; cell line not stated here;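 further: intracellular cAMP measured with PDE inhibitor Ro 20-1724 present during compound exposure; potency means the concentration at half of the fitted maximal effect; on the % scale 0 is the no-effect control and ±100 the full control effect; nearly all actives have a fitted effect of over 65% in size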
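Cells in G418 medium, seeded 16-24 h, 37C; buffer exchange to DPBS + 1 mM CaCl2, 0.5 mM MgCl2, 0.05% BSA; cpds in DMSO + […] (300 uM stock), 30 min 37C; HTRF cAMP detection.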
gsp ag: agonists of gsp mutant (McCune-Albright syndrome) | Potency, µM (highest dose often 76.9 µM), for inactives: top-dose activation (cAMP increase), usual class: activators | AID 624287 | gsp mutant cells, cAMP HTRF, 30 min; control for the full effect not named in the record | actives 0.13% (n = 340,000); active = well fitted activation curve with a large enough effect; inconclusive = small, poorly fitted or top-dose-only effect, or another doubt; inactive = no such curve, though single readings can be large or run the other way; cell line not stated here;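 further: phosphodiesterase inhibitor Ro 20-1724 added with compounds to block cAMP breakdown; potency means the concentration at half of the fitted maximal effect; nearly all actives have a fitted effect of over 60% in size; about a fifth of the inactives were tested at one dose only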
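Cells in DMEM/10% FBS with G418 were pretreated with compounds in DMSO plus […] (300 uM stock) for 30 min at 37C. cAMP was measured by HTRF (cAMP-d2 plus anti-cAMP antibody-K) after 30 min at room temperature.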
Six1-Eya2 blk: inhibitors of human Six1/Eya2 interaction. Q15475+O00167. AlphaScreen GST-Six1/His-Eya2 binding, biochemical; stronger effect = lower value; control for the full effect not named in the record. activity change, % (concentration not given with the values). actives 0.56% (n = 360,000); in the data active = activity change below about -65%; inconclusive = about -30% to -65%; inactive = above about -30%; further: on the % scale 0 is the no-effect control and ±100 the full control effect
Target sequence (O00167 whole entry, looked up): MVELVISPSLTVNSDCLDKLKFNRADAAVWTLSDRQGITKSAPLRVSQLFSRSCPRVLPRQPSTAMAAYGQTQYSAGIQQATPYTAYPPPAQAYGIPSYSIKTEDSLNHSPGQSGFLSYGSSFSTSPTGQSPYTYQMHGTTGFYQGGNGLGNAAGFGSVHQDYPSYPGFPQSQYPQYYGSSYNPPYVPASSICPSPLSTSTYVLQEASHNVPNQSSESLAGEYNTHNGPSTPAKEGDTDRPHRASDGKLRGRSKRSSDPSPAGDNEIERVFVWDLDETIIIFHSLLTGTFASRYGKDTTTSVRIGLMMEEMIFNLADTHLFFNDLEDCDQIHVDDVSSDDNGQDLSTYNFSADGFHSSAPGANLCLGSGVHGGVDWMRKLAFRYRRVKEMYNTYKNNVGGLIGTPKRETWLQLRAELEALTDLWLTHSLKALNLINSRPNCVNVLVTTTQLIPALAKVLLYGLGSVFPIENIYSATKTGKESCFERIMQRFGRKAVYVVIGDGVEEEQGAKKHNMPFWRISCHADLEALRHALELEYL
Target sequence (Q15475 whole entry, looked up): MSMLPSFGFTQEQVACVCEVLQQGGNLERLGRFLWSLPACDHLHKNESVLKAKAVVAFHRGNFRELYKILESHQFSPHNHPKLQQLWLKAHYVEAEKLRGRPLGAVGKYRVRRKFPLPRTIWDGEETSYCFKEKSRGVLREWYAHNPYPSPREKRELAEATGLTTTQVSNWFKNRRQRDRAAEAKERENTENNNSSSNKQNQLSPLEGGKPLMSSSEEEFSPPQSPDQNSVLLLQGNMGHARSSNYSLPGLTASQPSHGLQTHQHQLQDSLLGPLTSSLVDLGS
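AlphaScreen with GST-Six1 and His-Eya2 (5X mix: 250 nM and 500 nM), glutathione donor and nickel acceptor beads; buffer 50 mM Tris pH 8.0, 300 mM NaCl, 1 mM TCEP; 1 h at 37 C in the dark.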
D2 ag: human D2 receptor agonism in beta-arrestin assay; DiscoveRx PathHunter D2 beta-arrestin, luminescence, 90 min; 100% = 57 uM dopamine signal; activation, % (no concentration beside the values); actives 0.084% (n = 360,000); AID 624465; in the data active = activation above about 40%; inconclusive = about 15% to 40%; inactive = below about 15%; further: compound concentration not given in the record; the text of the record calls up to 30% inactive
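DiscoveRx PathHunter D2 beta-arrestin cells (2,100/well) attached overnight, then compound-stimulated 90 min at 37 C in HBSS/10 mM HEPES/0.1% Tween-20 buffer; beta-galactosidase complementation read by luminescence after 1 h at ambient temperature. Dopamine 57 uM final (EC100) as control.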
D2 PAM: potentiates the human D2 dopamine receptor allosterically | P14416 | DiscoveRx D2 beta-arrestin cells, luminescence, 90 min; 100% = 57 uM dopamine signal | potentiation, % (test concentration not listed) | actives 0.23% (n = 360,000) | AID 624464; active = potentiation of 50% or more; inconclusive = 30% to 50%; inactive = 30% or less;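 further: compound concentration not given in the record; tested on top of an EC20 dose of dopamine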
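PathHunter D2 cells, attached overnight at 37 deg C, received compound in DMSO plus dopamine at EC20 (50 nM final) for 90 min at 37 deg C. Beta-arrestin recruitment was read as luminescence after 1 h with detection reagent at ambient temperature.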
Active calls of the source: *; [ ] = dose if it differs, or a comment.

COc1ccc2[nH]c(C(=O)O)c(NC(=O)c3cc(OC)c(OC)c(OC)c3)c2c1 was read as CtBP-E1A blk -16, gsp antagonist 5%, gsp ag inconclusive, Six1-Eya2 blk -5, D2 ag -21 and D2 PAM -5.
COCC(=O)n1nc(-c2ccccc2)nc1NCc1ccccc1 was read as CtBP-E1A blk 1, gsp antagonist -12%, gsp ag -33%[inhibitor], Six1-Eya2 blk 0, D2 ag -1.7 and D2 PAM -1.
For O=C(OCC(=O)N1CCN(c2ccccc2)CC1)C1=COCCO1 the results were CtBP-E1A blk 6, gsp antagonist 5%, gsp ag -23%, Six1-Eya2 blk 2, D2 ag -2.1 and D2 PAM -9.
Screening CC(=O)NCCn1c(SCc2cc(F)ccc2F)nc2ccccc2c1=O returned CtBP-E1A blk -4, gsp antagonist -8%, gsp ag 2%, Six1-Eya2 blk -4, D2 ag -4.3 and D2 PAM -10.
For Cc1ccccc1-n1c(N)c(C(=O)Nc2ccc(F)cc2)sc1=S the results were CtBP-E1A blk -16, gsp antagonist 6%, gsp ag -6%[15.4 µM], Six1-Eya2 blk 7, D2 ag -3.8 and D2 PAM -6.
Screening COc1ccccc1NC(=O)Cn1c(CN2CCCCC2)nc2ccccc2c1=O returned CtBP-E1A blk -13, gsp antagonist -8%, gsp ag -23%, Six1-Eya2 blk -1, D2 ag -2.2 and D2 PAM -11.
Screening O=C(Nc1ccc(N2CCCC(O)C2)cc1)c1snc2c(=O)[nH]cnc12 (stereo not drawn) returned CtBP-E1A blk -8, gsp antagonist -11%, gsp ag -45%[inhibitor], Six1-Eya2 blk 0, D2 ag -0.7 and D2 PAM 1.
`CCc1nn(-c2ccccc2)c2c1-c1cc(OC)c(OC)cc1C1(N2)C(=O)Nc2ccccc21` (stereo not drawn) gave CtBP-E1A blk 1, gsp antagonist 10%, gsp ag 12%, Six1-Eya2 blk -14, D2 ag 0.3 and D2 PAM 26.
For CNc1nc(Oc2cccc(NC(C)=O)c2)c2sccc2n1 the results were CtBP-E1A blk -11, Six1-Eya2 blk -2, D2 ag 4.8 and D2 PAM -5.
Screening Cc1cc2c3c([nH]c2cc1S(=O)(=O)NCCCOC(C)C)CC(C)(C)CC3=O returned gsp antagonist 3%, gsp ag -15%, Six1-Eya2 blk 2, D2 ag -0.7 and D2 PAM -10.
Screening COc1ccc(-c2nnc(SC)o2)c(OC)c1 returned CtBP-E1A blk -5, gsp antagonist -11%, gsp ag inconclusive, Six1-Eya2 blk 5, D2 ag 0.1 and D2 PAM -6.
O=C(CSc1nnc2scc(-c3ccccc3)n12)NCc1ccco1 was read as CtBP-E1A blk 3, gsp antagonist 9%, gsp ag 9%[15.4 µM], Six1-Eya2 blk -6, D2 ag 2.2 and D2 PAM -4.
Screening CCOC(=O)C1CCN(C(=O)CC(NS(=O)(=O)c2ccc(OC)cc2)C(C)C)CC1 (stereo not drawn) returned CtBP-E1A blk 7, gsp antagonist -13%, gsp ag -42%[inhibitor], Six1-Eya2 blk -2, D2 ag 1.5 and D2 PAM -1.
CCN(Cc1ccccc1)C(=O)COC(=O)c1cc(=O)[nH]c2ccccc12 was read as CtBP-E1A blk -5, gsp antagonist 12%, gsp ag 18%, Six1-Eya2 blk -4, D2 ag -3.2 and D2 PAM -5.
`CC(C)CNc1cc(=O)n(C)c(=O)n1C` gave CtBP-E1A blk -1, gsp antagonist 9%, gsp ag 6%, Six1-Eya2 blk -11, D2 ag -2.7 and D2 PAM -11.
For CC1(C)CC(=O)C2=C(C1)Oc1ncn3nc(-c4cccnc4)nc3c1C2c1ccccc1 (stereo not drawn) the results were CtBP-E1A blk 34, gsp antagonist 27%, gsp ag -45%[inhibitor], Six1-Eya2 blk -11, D2 ag 0.7 and D2 PAM -11.
`Cc1cc(Nc2nc3ccccc3nc2Cl)n(-c2ccc([N+](=O)[O-])cc2)n1` gave CtBP-E1A blk 1, gsp antagonist -23%, gsp ag 3%, Six1-Eya2 blk -3, D2 ag -2.0 and D2 PAM -25.
Screening CCN(CC(=O)Nc1c(F)cccc1F)C(=O)c1ccc(OCC(=O)N2CCOCC2)c(OC)c1 returned CtBP-E1A blk 3, gsp antagonist 2%, gsp ag 4%[15.4 µM], Six1-Eya2 blk 1, D2 ag -4.6 and D2 PAM 2.
Cc1ccc(C2=NOC(C)(c3nnc(-c4ccc(F)cc4)o3)C2)cc1 (stereo not drawn) was read as CtBP-E1A blk 10, gsp antagonist -14%, Six1-Eya2 blk 8, D2 ag -2.2 and D2 PAM -8.
CCc1nnc(NC(=O)C2CCCN2C(=O)Nc2ccccc2OC)s1 (stereo not drawn) was read as CtBP-E1A blk 5, gsp antagonist 2%, gsp ag 6%, Six1-Eya2 blk 6, D2 ag -2.9 and D2 PAM 13.
CC(NC(=O)c1cc(=O)[nH]c2ccccc12)c1ccc(F)cc1F (stereo not drawn) was read as CtBP-E1A blk -11, gsp antagonist -8%, gsp ag inconclusive, Six1-Eya2 blk 7, D2 ag 1.7 and D2 PAM -2.
For COc1ccc(C)cc1NC(=O)COCC(=O)O the results were CtBP-E1A blk 7, gsp antagonist 10%, gsp ag -7%, Six1-Eya2 blk 8, D2 ag 4.6 and D2 PAM -5.
Screening CCCNC(=O)CC1Sc2ccccc2NC1=O (stereo not drawn) returned CtBP-E1A blk 2, gsp antagonist -1%, gsp ag -13%, Six1-Eya2 blk 7, D2 ag 2.3 and D2 PAM 5.
CC(C)c1cc(CNC(=O)C2CCC(=O)N(CCc3ccc(Cl)cc3)C2)on1 (stereo not drawn) was read as CtBP-E1A blk 1, gsp antagonist -9%, gsp ag 8%, Six1-Eya2 blk 5, D2 ag 1.2 and D2 PAM -7.
Screening CC(=O)c1ccc(NC(=O)CSc2nnc(-c3ccco3)c(-c3ccco3)n2)cc1 returned CtBP-E1A blk inconclusive, gsp antagonist -13%, gsp ag 20%, Six1-Eya2 blk inconclusive, D2 ag 2.2 and D2 PAM 1.
`CC(C)CC(=O)c1c[nH]c(C(=O)NCc2cccs2)c1` gave CtBP-E1A blk 10, gsp antagonist 14%, gsp ag 20%, Six1-Eya2 blk -1, D2 ag -2.1 and D2 PAM -9.
For CCOC(=O)c1c(NC(=O)C2C3CCC(O3)C2C(=O)O)sc2c1CCCC2 (stereo not drawn) the results were CtBP-E1A blk 5, gsp antagonist -10%, gsp ag -2%[15.4 µM], Six1-Eya2 blk 0, D2 ag 0.2 and D2 PAM -3.
`COc1ccccc1S(=O)(=O)N1CCn2cccc2C1C` (stereo not drawn) gave CtBP-E1A blk -6, gsp antagonist 6%, gsp ag 10%[15.4 µM], Six1-Eya2 blk -2, D2 ag 6.5 and D2 PAM -8.
O=C(Nc1ncnc2c1CCC2)C12CC3CC(CC(C3)C1)C2 was read as CtBP-E1A blk 0, gsp antagonist 3%, gsp ag -9%, Six1-Eya2 blk 2, D2 ag -1.9 and D2 PAM -8.
Screening CCCC(C)NC(=O)c1ccc2[nH]c3c(c2c1)CC(C)CC3 (stereo not drawn) returned CtBP-E1A blk -8, gsp antagonist -6%, gsp ag 16%, Six1-Eya2 blk -7, D2 ag -5.8 and D2 PAM -11.
CCCCNS(=O)(=O)CCNCc1ccccc1OC was read as CtBP-E1A blk 1, gsp antagonist 5%, Six1-Eya2 blk 6, D2 ag -1.3 and D2 PAM -16.
Cc1ccc(NC(=S)N(CCN2CCCCC2)Cc2ccco2)cc1Cl was read as CtBP-E1A blk 5, gsp antagonist -23%, gsp ag 17%[15.4 µM], Six1-Eya2 blk 0, D2 ag -1.4 and D2 PAM -17.
For Cc1cc2nn(-c3ccc(Cl)cc3)nc2cc1N the results were gsp antagonist -1%, gsp ag inconclusive, Six1-Eya2 blk 13, D2 ag 8.5 and D2 PAM -8.
Screening Cc1ccccc1NS(=O)(=O)c1ccc2c(c1)oc(=O)n2C returned gsp antagonist 8%, gsp ag -18%, Six1-Eya2 blk -1, D2 ag -2.7 and D2 PAM -6.
`Cc1ccc(N2C(=O)C(CC(=O)Nc3cccc(F)c3)N(CCc3ccncc3)C2=O)cc1` (stereo not drawn) gave gsp antagonist -9%, gsp ag 3%, Six1-Eya2 blk 0, D2 ag -3.5 and D2 PAM -29.
`COc1ccc([C@H]2CC(=O)C=C(c3ccccc3-c3ccccc3)C2)cc1` gave CtBP-E1A blk -10, gsp antagonist -4%, gsp ag -4%, Six1-Eya2 blk -15, D2 ag -2.8 and D2 PAM -6.
`CCSc1nnc(NC(=O)C2CC(=O)N(Cc3ccccc3)C2)s1` (stereo not drawn) gave CtBP-E1A blk 7, gsp antagonist -9%, gsp ag -17%, Six1-Eya2 blk -1, D2 ag 2.2 and D2 PAM -4.
For O=C(CCC(=O)N1CCN(c2ccc(F)cc2)CC1)c1ccc(F)cc1 the results were CtBP-E1A blk -19, gsp antagonist -2%, gsp ag -4%[15.4 µM], Six1-Eya2 blk 6, D2 ag 0.1 and D2 PAM -1.
Cc1cc(C(=O)OCC(=O)N(CC(C)C)c2c(N)n(Cc3ccccc3)c(=O)[nH]c2=O)c(C)o1 was read as CtBP-E1A blk -2, gsp antagonist -19%, gsp ag -7%[15.4 µM], Six1-Eya2 blk 3, D2 ag 0.9 and D2 PAM -7.
Screening Cc1ccc(OCCN(C)C(=O)C2CCC(=O)N(Cc3ccccc3F)C2)cc1 (stereo not drawn) returned CtBP-E1A blk 18, gsp antagonist 2%, gsp ag 8%[15.4 µM], Six1-Eya2 blk 3, D2 ag 1.0 and D2 PAM -16.
Screening CC1CCCN(CCCNC(=O)CN2C(=O)COc3ccccc32)C1 (stereo not drawn) returned CtBP-E1A blk 2, gsp antagonist -13%, gsp ag 6%, Six1-Eya2 blk 4, D2 ag -2.0 and D2 PAM -15.
Screening CCN(CC)S(=O)(=O)c1ccc(N2CC(C(=O)NCCC3=CCCCC3)CC2=O)cc1 (stereo not drawn) returned CtBP-E1A blk 1, gsp antagonist -15%, gsp ag 14%, Six1-Eya2 blk 3, D2 ag 12 and D2 PAM 0.

Quoted at random: three compounds from above, in no set order.
Screening CC1CCCN(CCCNC(=O)CN2C(=O)COc3ccccc32)C1 (stereo not drawn) returned CtBP-E1A blk 2, gsp antagonist -13%, gsp ag 6%, Six1-Eya2 blk 4, D2 ag -2.0 and D2 PAM -15.
Screening CCN(CC)S(=O)(=O)c1ccc(N2CC(C(=O)NCCC3=CCCCC3)CC2=O)cc1 (stereo not drawn) returned CtBP-E1A blk 1, gsp antagonist -15%, gsp ag 14%, Six1-Eya2 blk 3, D2 ag 12 and D2 PAM 0.
`CCSc1nnc(NC(=O)C2CC(=O)N(Cc3ccccc3)C2)s1` (stereo not drawn) gave CtBP-E1A blk 7, gsp antagonist -9%, gsp ag -17%, Six1-Eya2 blk -1, D2 ag 2.2 and D2 PAM -4.

High-throughput results as filed in PubChem.
